ClpP mod = qHTS Assay for Activators of ClpP. AID 651965, 2013. ATP-dependent Clp protease proteolytic subunit (Bacillus subtilis (strain 168)), P80244. Potency, µM (titrated, usually from 57.5 µM), inactives show top-dose activity change, negative = active. 340,000 tested, 1.9% active. purified B. subtilis ClpP, FRET peptide cleavage, 20 min; active = well fitted falling curve with a large enough effect; inconclusive = small, poorly fitted or top-dose-only effect; inactive = no such curve, though single readings can be large or run the other way; note: the source files actives as falling curves though it sought activators and does not explain the sign; nearly all actives have a fitted effect of over 65% in size; many hits overshoot -100%
Target sequence (P80244 whole entry, looked up): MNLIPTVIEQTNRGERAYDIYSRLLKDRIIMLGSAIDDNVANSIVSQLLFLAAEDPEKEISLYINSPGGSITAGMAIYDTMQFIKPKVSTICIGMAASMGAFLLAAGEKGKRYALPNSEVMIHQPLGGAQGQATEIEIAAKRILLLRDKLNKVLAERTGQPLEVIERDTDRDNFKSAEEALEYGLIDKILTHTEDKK
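FRET quenching reversal measured ClpP activation: 10 microg/mL B. subtilis ClpP at pH 8 with the FRET-FV decapeptide, read at 430 nm after 320 nm excitation. The 20-min minus 0-min signal was scaled between DMSO/no-enzyme wells and ADEP (5.8 microM final).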
Starred values were filed as active, the others as inactive. Potency is the fitted concentration of half-maximal effect. The list is partial; the hit share may differ from the screen's.

CCOc1ccc(N2CC(NC(=O)c3ccc(S(=O)(=O)N4CCCC4)cc3)CC2=O)cc1 (stereo unspecified) was read as ClpP mod -0.9%.
Screening COc1ccc2ncc3c(-c4ccccc4)nn(-c4ccc(C)c(C)c4)c3c2c1 returned ClpP mod inconclusive.
Screening O=C(C[n+]1csc2ccccc21)c1cccc([N+](=O)[O-])c1 returned ClpP mod -3.7%.
CCc1ccc2oc(-c3ccc(C)c(NC(=O)c4cc([N+](=O)[O-])ccc4N4CCOCC4)c3)nc2c1 was read as ClpP mod 0.9%.
Screening COc1ccc(Cc2nc3ccc(C(=O)NCCc4ccc(Cl)cc4)cc3o2)cc1 returned ClpP mod -0.8%.
For CC(=O)c1ccc(NC(=O)c2cn(-c3ccccc3)nc2-c2ccc(Br)cc2)cc1 the results were ClpP mod 0.0%.
`COCCCn1c(=N)c(C(=O)NC2CCCC2)cc2c(=O)n3ccccc3nc21` gave ClpP mod 4.3%.
For COc1ccc(Nc2nnc(-c3ccc(C)c(S(=O)(=O)N4CCOCC4)c3)c3ccccc23)cc1 the results were ClpP mod -3.8%.
`O=C(O)c1ccc(Nc2nc3ccccc3c3nncn23)cc1` gave ClpP mod -8.3%.
Screening Cc1ccc(-c2nc(CCNC(=O)c3ccc(C)c(C)c3)cs2)cc1 returned ClpP mod -27%.

The last 3 entries of the part above come first, to join the parts.
For COc1ccc(Nc2nnc(-c3ccc(C)c(S(=O)(=O)N4CCOCC4)c3)c3ccccc23)cc1 the results were ClpP mod -3.8%.
`O=C(O)c1ccc(Nc2nc3ccccc3c3nncn23)cc1` gave ClpP mod -8.3%.
Screening Cc1ccc(-c2nc(CCNC(=O)c3ccc(C)c(C)c3)cs2)cc1 returned ClpP mod -27%.
Cc1ccccc1C(=O)n1nc(-c2cccnc2)nc1NCc1ccccc1 was read as ClpP mod -0.6%.
For Cc1ccc(OCCSc2nc(-c3cccs3)nc3cc(=O)[nH]n23)cc1Cl the results were ClpP mod 2.2%.
`Cc1n[nH]c(C)c1CCc1nc2c3ccccc3nc(SCC(=O)Nc3ccc(F)cc3)n2n1` gave ClpP mod -1.3%.
CCC(=O)Nc1ccc2nc(SCCOc3ccc(C)cc3OC)sc2c1 was read as ClpP mod -3.0%.
Screening O=C1CSC2(C(=O)N(Cc3cccc(C(F)(F)F)c3)c3ccccc32)N1c1ccc(F)c(F)c1 (stereo unspecified) returned ClpP mod 0.6%.
`COc1ccc(-c2nc3sc(CCNS(=O)(=O)c4c(C)cc(C)cc4C)c(C)n3n2)cc1` gave ClpP mod -0.1%.
Screening CC(C)Sc1ncc(Cl)c(C(=O)N(Cc2ccc(F)cc2)C2CCS(=O)(=O)C2)n1 (stereo unspecified) returned ClpP mod 0.5%.
For CCOc1ccc(CNCc2c(C(=O)O)c(C)n(Cc3ccc(F)cc3Cl)c2C)cc1 the results were ClpP mod -3.5%.
CC1=C(C(=O)NCc2ccccc2C)C2(CCCCC2)OC1=O was read as ClpP mod 0.8%.
Screening COc1ccccc1CNC(=O)CN1C(=O)c2cccnc2Oc2ccccc21 returned ClpP mod 0.1%.
`Cc1ccc(C)c(NC(=O)c2nc(S(C)(=O)=O)ncc2N(Cc2ccc(C(C)(C)C)cc2)Cc2ccco2)c1` gave ClpP mod -2.4%.
Cc1nn(C)c(C)c1S(=O)(=O)N(CC(=O)Nc1ccc(F)cc1F)c1ccc(C(C)C)cc1 was read as ClpP mod -2.4%.
COc1ccccc1CCNC(=O)C(=O)NCC(c1cccnc1)N1CCN(c2ccccc2)CC1 (stereo unspecified) was read as ClpP mod 0.5%.
For COC(=O)c1ccc(CSc2nc3c([nH]c4ccccc43)c(=O)n2-c2cccc(Cl)c2)o1 the results were ClpP mod -16%.
Screening CC1CCN(S(=O)(=O)c2ccc3nc(Nc4cccc(F)c4)ccc3c2)CC1 returned ClpP mod 5.2%.
Screening Cc1cc(C)c(NC(=O)C(C)n2nnc3sc4c(c3c2=O)CCCC4)c(C)c1 (stereo unspecified) returned ClpP mod -0.7%.
Screening CC1(C)OB(c2cnc(C#N)nc2)OC1(C)C returned ClpP mod -4.1%.
`Cc1nn(CC(=O)NCCc2ccc(Cl)cc2)c(=O)c2cc3cc(F)ccc3n12` gave ClpP mod -10%.
CN(C)c1ccc(/C=C/c2ccnc3c(Cl)cccc23)cc1 was read as ClpP mod -1.5%.
`CCc1ccc(NC(=O)CN2C(=O)C(c3ccc(F)cc3)=NC2(C)C)cc1` gave ClpP mod 0.2%.
Screening CCOC(=O)c1nnn(C(CC)C(=O)Nc2ccc(F)cc2)c1C(=O)OCC (stereo unspecified) returned ClpP mod 1.0%.
CCOc1ccc(-c2nonc2NC(=O)c2oc3ccc(C)cc3c2C)cc1OCC was read as ClpP mod -1.9%.
For Cc1cc(Nc2cccc(Cl)c2)nc2ccc(NC(=O)c3ccc(F)cc3Cl)cc12 the results were ClpP mod 28µM*.
For COc1cc(C(=O)Nc2ccc(NC(=O)c3ccc(C(C)(C)C)cc3)cc2)cc(OC)c1OC the results were ClpP mod -30%.
For COc1ccc(N(CC(=O)Nc2cc(OC)cc(OC)c2)S(=O)(=O)c2c(C)noc2C)cc1 the results were ClpP mod -3.3%.
COc1ccc(-c2nsc(NC(=O)c3cccc(OC)c3)n2)cc1 was read as ClpP mod 9.3%.
`CCOc1ccc(OCC)c(NS(=O)(=O)c2cc(-c3cnc(C)o3)ccc2OC)c1` gave ClpP mod -0.3%.
For Cc1ccc(NC(=O)N2CCN(Cc3nc4ccc(C)cc4o3)CC2)c(Cl)c1 the results were ClpP mod 0.1%.
`CCOc1ccc(/C=C/C(=O)Nc2ccc3nc(N(CC)CC)cc(C)c3c2)cc1OC` gave ClpP mod 0.5%.
CCOC(=O)c1c(-c2ccccc2)oc2ccc(NS(=O)(=O)c3ccccc3)cc12 was read as ClpP mod 4.2%.

Random excerpt: 4 entries already listed.
COc1ccc(-c2nsc(NC(=O)c3cccc(OC)c3)n2)cc1 was read as ClpP mod 9.3%.
Screening CCOC(=O)c1nnn(C(CC)C(=O)Nc2ccc(F)cc2)c1C(=O)OCC (stereo unspecified) returned ClpP mod 1.0%.
For COc1cc(C(=O)Nc2ccc(NC(=O)c3ccc(C(C)(C)C)cc3)cc2)cc(OC)c1OC the results were ClpP mod -30%.
For Cc1ccc(NC(=O)N2CCN(Cc3nc4ccc(C)cc4o3)CC2)c(Cl)c1 the results were ClpP mod 0.1%.

The listing continues.
Screening Cc1cc(OCC(=O)NC(Cc2c[nH]c3ccccc23)C(=O)O)ccc1Cl (stereo unspecified) returned ClpP mod -0.2%.
For CCN(CC)CCNC(=O)c1nn(-c2ccc(OC)c(Cl)c2)c(=O)c2c1c1ccccc1n2C the results were ClpP mod -9.7%.
Cc1ccccc1Cn1nnc2c(=O)[nH]c(C3CCN(C(=O)c4ccccc4Cl)CC3)nc21 was read as ClpP mod -0.6%.
`COc1ccc(CCNc2oc(/C=C/c3ccc(OC)c(OC)c3)nc2C#N)cc1` gave ClpP mod 4.0%.
`CCn1cc(C(=O)NCCc2ccccc2)c(=O)c2cc(S(=O)(=O)N(C)C3CCCCC3)ccc21` gave ClpP mod -3.5%.
Screening CCC1CCCCN1S(=O)(=O)c1cc(C(=O)Nc2ccc(C)c(F)c2)ccc1F (stereo unspecified) returned ClpP mod -8.5%.
Screening O=C1CCC[C@@H]2CC(Nc3ccccc3)C[C@@H]3CCN1[C@H]23 (stereo partly specified) returned ClpP mod 0.9%.
For COc1ccc(NC(=O)Nc2nnc(N3CCCC3)s2)cc1 the results were ClpP mod -1.9%.
For COCc1cc(C)n(CC(=O)Nc2cccc(C(C)=O)c2)c(=O)c1C#N the results were ClpP mod 4.2%.
For Cc1cc(C)cc(N2CCn3c2nc2c3c(=O)n(C/C=C/c3ccccc3)c(=O)n2C)c1 the results were ClpP mod -17%.
`COc1ccc(NC(=O)c2c(NC(=O)c3ccc(Br)cc3)sc3c2CCCC3)cc1` gave ClpP mod -0.4%.
Cc1ccc(C(=O)Nc2ccc(C(=O)O)cc2)cc1S(=O)(=O)Nc1ccccc1 was read as ClpP mod -3.8%.
For CCOc1ccc(NC(=O)c2cc(S(=O)(=O)N3CCC(C)CC3)cn2C)cc1 the results were ClpP mod 1.5%.
CCOc1ccc(C2CC(=O)n3nc(-c4ccc(C)cc4)nc3S2)cc1 (stereo unspecified) was read as ClpP mod -2.6%.
Screening CCOc1cc(C2C(C(N)=O)=C(C)Nc3ncnn32)cc(Br)c1O (stereo unspecified) returned ClpP mod -0.7%.
For Cc1ccc(Cl)cc1NC(=O)CN1C(=O)c2ccccc2Sc2ncccc21 the results were ClpP mod 0.5%.
`CNS(=O)(=O)c1cn(CC(=O)N2CCN(c3ccccc3OC)CC2)cc1S(=O)(=O)NC` gave ClpP mod -3.0%.
COc1ccccc1N1CCN(C(=O)C2CCN(S(=O)(=O)c3c(C)noc3/C=C/c3ccc(C)cc3)CC2)CC1 was read as ClpP mod -4.6%.
For COC(=O)CC(=O)CSc1nc2cc(C(=O)NC(C)C)ccc2c(=O)n1CCc1ccccc1 the results were ClpP mod -2.9%.
Cc1ccc(Cn2c(CNS(=O)(=O)c3cccc([N+](=O)[O-])c3)nc3cccnc32)cc1 was read as ClpP mod -2.4%.
CCc1nn(CCCC(=O)N2CCN(c3cccc(OC)c3)CC2)c(=O)c2cc3occc3n12 was read as ClpP mod -4.0%.
Screening CN(C)S(=O)(=O)N1CCC(N2CCN(Cc3ccc(F)cc3)C(=O)C2=O)CC1 returned ClpP mod -1.1%.
O=C(Cn1ncc2c3ccccc3n(Cc3ccc(Cl)cc3)c2c1=O)N1CCCCCC1 was read as ClpP mod -2.4%.
For CCOC(=O)c1cccc(NC(=O)c2cc3cc4cc(OC)ccc4nc3s2)c1 the results were ClpP mod -1.1%.
Screening Cc1ccc(/C=C/c2onc(C)c2S(=O)(=O)N2CCC(C(=O)N(CCC(C)C)Cc3ccco3)CC2)cc1 returned ClpP mod inconclusive.
Screening Cc1ccc2cc3c(N)nn(C(=O)c4cccc(F)c4)c3nc2c1 returned ClpP mod 1.6%.
COc1ccccc1OCCn1c(NC(=O)c2ccccc2)nc2ccccc21 was read as ClpP mod 5.6%.
Screening Fc1ccc(-c2noc3ncnc(NCC4CCN(Cc5ccc(Cl)cc5)CC4)c23)cc1 returned ClpP mod 2.4%.
Screening COc1ccc(CNC(=O)CCc2c(C)nc3c(c2C)c(=O)n(C)c(=O)n3C)cc1 returned ClpP mod -6.9%.
`CC(=O)N1CCc2c(sc3c2c(=O)n(-c2ccc(C)cc2)c(=O)n3Cc2c(F)cccc2Cl)C1` gave ClpP mod -9.7%.
`Cc1ccc(-n2cc(-c3ccccc3)c3c(N4CCC(C)CC4)ncnc32)cc1Cl` gave ClpP mod -2.3%.
CCc1ccccc1NC(=O)C1CCN(c2nn3c(=O)cc(C)nc3s2)CC1 was read as ClpP mod -2.8%.
Screening CN1CCN(CCCNC(=O)Cn2c(-c3cccs3)cc3ccccc32)CC1 returned ClpP mod 11µM*.
For O=C(C[n+]1ccccc1)c1ccc(O)c(O)c1 the results were ClpP mod 1.8%.
Screening Cc1ccc(C)c(CN2C(=O)C3(c4ccccc42)N(c2cccc(C(F)(F)F)c2)C(=O)CS3(=O)=O)c1 (stereo unspecified) returned ClpP mod 2.6%.
`COc1ccc(NC(=O)CSc2c3c(nc4ccc(Cl)cc24)CCCC3)cc1Cl` gave ClpP mod -1.5%.
Screening O=c1cc(-c2ccccc2)n2c(SCc3cccc([N+](=O)[O-])c3)nnc2[nH]1 returned ClpP mod 1.1%.
`CC(Oc1ccccc1)C(=O)Nc1ccccc1C(=O)OCc1cc(=O)n2nc(C3CC3)sc2n1` (stereo unspecified) gave ClpP mod -0.2%.
`Cc1ccc(C(=O)Nc2ccc(S(=O)(=O)N(Cc3ccccc3)c3ccccc3)cc2)cc1` gave ClpP mod inconclusive.
Screening COc1ccc(CNC(=O)c2ccc3nc(CCc4ccccc4)oc3c2)cc1 returned ClpP mod -0.3%.

Filtered by structure, the compounds so far containing a cyano group.
Screening CC1(C)OB(c2cnc(C#N)nc2)OC1(C)C returned ClpP mod -4.1%.
`COc1ccc(CCNc2oc(/C=C/c3ccc(OC)c(OC)c3)nc2C#N)cc1` gave ClpP mod 4.0%.
For COCc1cc(C)n(CC(=O)Nc2cccc(C(C)=O)c2)c(=O)c1C#N the results were ClpP mod 4.2%.

New compounds follow.
Screening Cc1ccc(CSc2nc3cc(C(=O)NC4CCCC4)ccc3c(=O)n2Cc2ccccc2)cc1 returned ClpP mod -14%.
`Cc1cccc(NC(=O)CSc2ncc3c(n2)-c2cc(Cl)ccc2N(C)S3(=O)=O)c1C` gave ClpP mod 4.1%.
Cc1ccc(C)c(N2CCN(C(c3ccc(F)cc3)c3nnc(-c4ccccc4)o3)CC2)c1 (stereo unspecified) was read as ClpP mod -0.8%.
For COc1ccc2c(c1)sc1ncc(C(=O)NCc3ccccc3F)c(=O)n12 the results were ClpP mod 11µM*.
For COC(=O)c1c(NC(=O)/C=C/c2ccc(OC)cc2)sc2c1CCC2 the results were ClpP mod -1.8%.
`O=C(NCCc1ccc(Cl)cc1)c1nnc(Cc2ccc(F)cc2)o1` gave ClpP mod 0.2%.
For O=C(CSc1ccc(-c2cccs2)nn1)Nc1ccccc1C(F)(F)F the results were ClpP mod -2.0%.
Screening Cc1cc(C)cc(OCCSc2nc3ccc(NC(=O)c4cccs4)cc3s2)c1 returned ClpP mod 0.3%.
`Cc1ccc2nc3sc(C(=O)NCCCN(C)c4ccccc4)cc3cc2c1` gave ClpP mod -1.5%.
Screening Cc1ccc(S(=O)(=O)NCCc2cn3ccsc3n2)c(C)c1 returned ClpP mod -1.2%.
Screening CCOc1ccc(CCNc2ncnc3onc(-c4ccc(Cl)cc4)c23)cc1 returned ClpP mod -7.7%.
Screening CCOc1ccc(CCNC(=O)CCN2N=C(c3ccc(OC)cc3)CCC2=O)cc1OCC returned ClpP mod -1.6%.
